# Source: PubChem
# AID504770: growth inhibitors of E. coli YBA685 in a screen for V. cholerae RctB (chromosome II replication) inhibitors | 0.27% of 130,000 active | z-score (test concentration not listed) | AID 504770 | E. coli YBA685 rctB-dependent plasmid, OD600 growth, 3 h; stronger effect = lower value;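 active = z-score under -2 on both plates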;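 note: wells of about 30 µL received 100 nL stock; score is relative to mean and SD of the test wells; the first replicate is given; strong numbers were not always called active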
# CapD inh: inhibitors of Bacillus anthracis CapD enzyme. AID 492967. purified CapD enzyme, fluorescence intensity read-out; stronger effect = lower value; some hits fall short of the stated cut. z-score (no concentration beside the values). 0.23% of 140,000 active;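 active = z-score under -4 in either of two replicates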;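 note: stock transfer was 100 nL into about 40 µL; score is relative to mean and spread of the plate; one replicate is shown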
# Active calls of the source: *; nt = no result given. The order is random, and some 0.41% of all compounds hit somewhere here.
no.	structure	AID504770	CapD inh
1	O=C(COc1ncnc2c1cnn2-c1ccccc1)c1ccc(Cl)s1	-0.75	nt
2	Cc1[nH]nc2c1C1(C(=O)Nc3ccc(F)cc31)C(C#N)=C(N)O2 (stereo not drawn)	nt	-0.14
3	O=C(OCC(=O)c1c[nH]c2ccccc12)c1ccc2c(c1)OCCO2	0.9	nt
4	Cc1cccn2cc(-c3ccc(S(=O)(=O)N4CCCCCC4)cc3)nc12	nt	20
5	O=C(Nc1ccc(Cl)cc1)c1ccc(N2CC3CC(C2)c2cccc(=O)n2C3)c(NC(=O)c2c(F)cccc2F)c1 (stereo not drawn)	nt	1.9
6	CN1CCN(c2ccc(C3Nc4ccc5ccccc5c4C4=C3C(=O)CC(C)(C)C4)cc2[N+](=O)[O-])CC1 (stereo not drawn)	nt	-0.56
7	Cc1cc2c(cc(C(=O)N3CCC(C(=O)NC4CCCC4)CC3)n2Cc2c(F)cccc2Cl)o1	-0.05	0.2
8	O=C(Nc1ccc(-c2cn3ccccc3n2)cc1)c1cc2cc(Br)ccc2oc1=O	nt	0.16
9	O=C1OC(Nc2ccc([N+](=O)[O-])cn2)c2ccccc21 (stereo not drawn)	nt	0.12
10	Cc1nn(C(=O)c2cccnc2)c(C)c1CS(=O)(=O)c1ccccc1	nt	-0.55
11	Cn1nc(C(F)(F)F)cc1-c1ccc(S(N)(=O)=O)s1	-0.5	0.22
12	CC(C)(C)S(=O)(=O)c1cnc(N2CCOCC2)nc1N	nt	0.19
13	N#C/C(=C\Nc1ccc(F)cc1)S(=O)(=O)c1nc2ccccc2s1	-0.65	0.17
14	Cn1ccnc1C(O)(CC(=O)O)C(F)(F)F (stereo not drawn)	0.05	nt
15	O=C(c1cccc(N2C(=O)C3C4C=CC(C4)C3C2=O)c1)N1CCN(c2ccccc2Cl)CC1 (stereo not drawn)	nt	-0.21
16	O=C(NCc1ccccn1)c1ccc(Cn2cc(C(F)(F)F)ccc2=O)cc1	nt	0.09
17	C(#CC(N1CCOCC1)N1CCOCC1)C1CC1	-0.25	-2.7
18	CC(C)Oc1ccc(C2CC(=O)N(Nc3ccccc3)C2=O)cc1 (stereo not drawn)	-1.2	nt
19	Cc1ccc2nc(SCc3c(C(=O)O)nnn3-c3nonc3N)[nH]c2c1	-0.55	-0.045
20	O=C(c1nn2c(c1Cl)NC(c1cccs1)CC2C(F)(F)F)N1CCN(Cc2ccccc2)CC1 (stereo not drawn)	nt	0.41
21	COC(=O)/C=C\c1cc(Br)ccc1C#N	-0.55	nt
22	O=C(O)C1C2CCC(C2)C1C(=O)NCc1ccc2c(c1)OCO2 (stereo not drawn)	-0.95	-0.28
23	CC(C)CNC(=O)CC1Sc2ccc(C(F)(F)F)cc2NC1=O (stereo not drawn)	2.2	-0.43
24	CSc1ncccc1C(=O)OC1CCCCC1=O (stereo not drawn)	0.2	nt
25	Cc1ccc(-n2nc(C)c3c(C)c(CCC(=O)N4CCCC4)c(C)nc32)cc1	0.05	21
26	O=C(NC(CO)CO)OCC1c2ccccc2-c2ccccc21	0.3	-0.65
27	Cn1cnnc1SCc1ccc(-c2csnn2)cc1	-1.4	0.59
28	COc1ccc(C(=O)N/N=C/c2ccc3c(c2)OCCO3)cc1	nt	0.15
29	COc1ccc(Cl)cc1Nc1ncnc2c1cnn2-c1ccc(Cl)cc1	nt	-0.15
30	N=c1c2c(-c3ccccc3)c(-c3ccccc3)n(Cc3ccco3)c2ncn1CCN1CCOCC1	0.7	0.76
31	CCC(C)NC(=O)/C(=C/c1ccc(F)cc1)c1cccs1 (stereo not drawn)	1.5	-1.2
32	COc1ccc(C2=CC(C3CC3)=C(C#N)C(=C(C#N)C#N)N2)cc1	-0.6	20
33	CCC(C)Nc1cc(C)c(C#N)c2nc3ccccc3n12 (stereo not drawn)	0.3	14
34	O=C(O)c1cnn(-c2nc(-c3ccccc3)cs2)c1C(F)(F)F	0.8	3
35	O=C(COC(=O)c1ccc(-c2ccccc2)cc1)Nc1ccc(F)cc1	0	0.22
36	CC1CCN(CCCNC(=O)c2n[nH]c(=O)c3ccccc23)CC1	-2.3	-0.025
37	CCCCCCN1C(=O)C(=O)/C(=C(\O)c2ccccc2)C1c1ccccc1OC (stereo not drawn)	nt	-0.62
38	O=C(c1cccs1)N1CCN(Cc2c(F)cccc2Cl)CC1	2.3	0.5
39	CCn1c2c(c3cc(C4CCCCC4)ccc31)CCCC2=O	0.05	19
40	N#CC1=C(SCC(=O)NC2CC2)NC2=C(C(=O)CCC2)C1c1ccco1 (stereo not drawn)	-0.8	2.2
41	CN(NC(=O)c1ccncc1)c1ccc(C(F)(F)F)cc1[N+](=O)[O-]	nt	-0.43
42	O/N=C/c1c(-c2ccccc2)nc2sccn12	-0.4	-0.68
43	O=C(CSc1c[nH]c2ccccc12)NCc1ccccc1	0	0.6
44	CCOC(=O)CC(=O)CSc1nc(N)c(C#N)c(-c2cccs2)c1C#N	nt	1.3
45	O=C(O)C1CCCCN1S(=O)(=O)c1ccccc1 (stereo not drawn)	-1.1	-0.64
46	CCCc1cnc2c(c1SCC(=O)NCc1ccc(F)cc1)c(=O)n(C)c(=O)n2C	2.1	nt
47	Cc1ncsc1CCOC(=O)c1ccccc1	-0.7	-0.31
48	CCOC(=O)C1=C(C)N=c2s/c(=C/c3cc(OC)c(OC)cc3OC)c(=O)n2C1c1cccs1 (stereo not drawn)	nt	-0.47
49	CCOc1ccc(N2C(=O)/C(=C/c3ccc(F)cc3)N=C2SC(CC)C(=O)N2CCOCC2)cc1 (stereo not drawn)	-0.05	0.33
50	CC(C)n1c(C(F)(F)F)nc2cc(C(=O)NCc3ccncc3)ccc21	-0.85	-0.29
51	O=C(CN1CCCC1)Nc1nc(-c2ccc3c(c2)CCN3C(=O)C2CC2)cs1	0.05	nt
52	O=c1c(Cl)c(Nc2cccc(Cl)c2)cnn1-c1nc2ccccc2s1	-0.05	0.26
53	CCOc1ccccc1-n1c(O)c(/C=C2\C=Nc3ccccc32)sc1=S	0.55	-0.83
54	O=C(Nc1nnc(CCS(=O)(=O)c2ccc(Br)cc2)s1)c1ccc(Cl)cc1	nt	-0.17
55	CCOc1ccc(NC(=O)c2sc3nc(C)nc(N(CC)CC)c3c2C)cc1	nt	-0.85
56	Cc1ccc(Nc2nnc(SCC(=O)NC(C)C)s2)cc1	0.85	nt
57	COC(=O)CNC(=O)c1cn(-c2ccccc2)nc1-c1ccc(F)cc1	-0.15	0.085
58	COc1cc2c(cc1OC)C(COc1ccccc1OC)N(C(=O)c1ccc(Br)o1)CC2 (stereo not drawn)	0.5	0.15
59	CCOC(=O)COc1ccc(C(C2=C(O)CC(C)(C)CC2=O)C2C(=O)CC(C)(C)CC2=O)cc1 (stereo not drawn)	nt	26
60	Cc1cc(C(C)(C)C)ccc1NC(=O)COCC(=O)O	-0.95	0.47

# New compounds follow:
no.	structure	AID504770	CapD inh
61	O=C(OCc1ccc(F)cc1Cl)N1CCN(c2ccc(Cl)cc2)CC1	nt	0.61
62	[O-]/[N+](=C/c1ccc(C(F)(F)F)cc1)c1ccccc1	-0.2	0.42
63	COc1cccc2c1OCC(C(=O)n1cccn1)=C2	-0.8	-0.36
64	Cc1ccc2oc(=O)n(CC(=O)C(C)(C)C)c2c1	-2.1*	-0.96
65	CSc1ccccc1NC(=O)COC(=O)CN1C(=O)CSc2ccccc21	-0.45	nt
66	Cc1cc([N+](=O)[O-])ccc1N1C(=O)C2C3c4ccccc4C(C=O)(c4ccccc43)C2C1=O (stereo not drawn)	nt	-0.045
67	Clc1ccc(CSc2ccccc2-c2nnc(-c3ccccc3)o2)cc1	nt	0.37
68	Cc1cc(N2CC(C)OC(C)C2)nc2ccccc12 (stereo not drawn)	0	nt
69	O=C(NC1CCCc2ccccc21)C1=Cc2cc(Cl)ccc2OC1 (stereo not drawn)	0.2	1.2
70	CC(=O)Nc1ccc(S(=O)(=O)N(Cc2ccco2)S(=O)(=O)c2ccccc2F)cc1	-0.4	nt
71	CCOC(=O)CS(=O)(=O)Cc1nc(-c2ccc(OC)c(OC)c2)no1	1.6	-0.09
72	N=C1SCCN1CC(=O)c1ccc(Cl)c(Cl)c1	nt	0.26
73	C=CCN(CC=C)CC(O)CN(c1ccc(C)cc1)S(=O)(=O)c1ccc2ccccc2c1 (stereo not drawn)	nt	-0.78
74	O=C(OC(C(=O)c1ccccc1)c1ccccc1)c1cccnc1Cl (stereo not drawn)	-0.15	0.65
75	Cc1nnc(NC(=O)C2CCN(S(=O)(=O)/C=C/c3ccccc3)CC2)o1	-0.05	nt
76	O=c1[nH]ccn(Cc2ccc(Cl)cc2)c1=O	-1.6	-0.41
77	Cc1cc(C)c(C#N)c(OC(=O)c2c(F)cccc2F)n1	nt	9.7
78	NC(=O)c1ccsc1NC(=O)c1ccccc1	-0.3	-0.39
79	O=C(CCS(=O)(=O)c1cccc2nonc12)N1CCc2ccccc21	-0.8	-0.84
80	CN(C(=O)CSc1c2c(nc3ccccc13)CCCC2)C1CCCCC1	0.15	-0.48
81	O=S(=O)(Nc1cc(Cl)ccc1Cl)c1cccs1	1	0.04
82	Cc1nnc2ccc(Cl)nn12	1.4	63
83	COC(=O)C1C(c2ccccc2)C(C(=O)N2CCN(C)CC2)C1c1ccccc1 (stereo not drawn)	-1.9	nt
84	Cc1ccsc1C(=O)N1CCCSC1=Nc1ccccc1	-0.35	nt
85	COC(=O)C1=C(C)Nc2ncnn2C1c1ccncc1 (stereo not drawn)	-0.15	nt
86	O=C1CNC(=O)N1/N=C/c1ccc(Cl)cc1Cl	0.55	0.29
87	COc1cc(OC)nc(NC(=S)Nc2ccc(F)cc2)n1	2.5	-0.38
88	CC(C)CCNC(=O)c1ccc(S(=O)(=O)C(F)F)cc1	0.55	nt
89	OCc1nc2ccccc2n1CCCOc1ccccc1	-0.8	-0.13
90	CCc1cc(=O)oc2cc(C)cc(OCC(=O)c3ccc(F)cc3)c12	1.4	-0.38
91	O=C(Cn1[nH]c(=O)c2ccccc2c1=O)N1CCCCCC1	0.6	nt
92	Cc1ccc2c(c1)c1c(n2CCC#N)CCN(C)C1	-0.45	0.55
93	Cc1cc(Cl)ccc1OCC(=O)NCC12CC3CC(CC(C3)C1)C2	0.3	-0.17
94	CCOC(=O)C1=C(C)N=c2s/c(=C/c3ccccc3OC)c(=O)n2C1c1ccc(OC)c(OCC)c1 (stereo not drawn)	nt	-0.35
95	c1coc(C2Nc3ccccc3C3OCCC23)c1 (stereo not drawn)	-0.5	nt
96	O=C(NC1CCS(=O)(=O)C1)Sc1ccccc1 (stereo not drawn)	1.2	nt
97	CN1C(=S)SC(N2OC3C(=O)N(c4ccccc4)C(=O)C3C2c2ccc(Cl)cc2)C1(C)C (stereo not drawn)	nt	3.3
98	Cc1cc(-c2csc(-c3cccs3)n2)c(C)n1C	0	nt
99	O=C(c1ccc(Br)cc1)N(Cc1ccco1)C1CCS(=O)(=O)C1 (stereo not drawn)	0.15	0.015
100	CC(=O)N(CC12CC3CC(CC(C3)C1)C2)C1CC(=O)N(c2cccc(Cl)c2)C1=O (stereo not drawn)	0.3	-0.05

# Compound profiles, from the list above. Order of screens: AID504770	CapD inh
# CC(C)CCNC(=O)c1ccc(S(=O)(=O)C(F)F)cc1 in the list: 0.55	nt
# O=C(Cn1[nH]c(=O)c2ccccc2c1=O)N1CCCCCC1 in the list: 0.6	nt
# CC(=O)N(CC12CC3CC(CC(C3)C1)C2)C1CC(=O)N(c2cccc(Cl)c2)C1=O (stereo not drawn) in the list: 0.3	-0.05
# COc1cc(OC)nc(NC(=S)Nc2ccc(F)cc2)n1 in the list: 2.5	-0.38
# CCOC(=O)C1=C(C)N=c2s/c(=C/c3ccccc3OC)c(=O)n2C1c1ccc(OC)c(OCC)c1 (stereo not drawn) in the list: nt	-0.35

# Next section.
no.	structure	AID504770	CapD inh
101	O=C(O)CCN1C(=O)SC(CC(=O)Nc2nccs2)C1=O (stereo not drawn)	-1	0.14
102	COc1ccc(NC(=O)c2cc(=O)c3ccc(C)cc3o2)cc1	-0.55	-0.14
103	O=C(On1c(-c2ccccc2F)nc2ccccc2c1=O)c1ccccc1[N+](=O)[O-]	nt	-0.45
104	O=C(Nc1nc(C23CC4CC(CC(C4)C2)C3)cs1)c1c(O)c2cccc3c2n(c1=O)CCC3	nt	-0.07
105	CCC1(C)NC(=O)N(/N=C/c2c(C)nn(Cc3c(Cl)cccc3Cl)c2SCC(=O)O)C1=O (stereo not drawn)	2	nt
106	COc1ccc(C2=NN3C(C2)c2cc(Br)ccc2OC3c2ccc(OC)c(OC)c2)cc1OC (stereo not drawn)	nt	0.77
107	CN(C)CC(C)(C)CNc1nc(-c2cccnc2)nc2ccccc12	-0.05	nt
108	COC(=O)CSc1nc2cc(Cl)ccc2c(=O)n1C1CCCC1	-1.1	nt
109	COc1cc(OC)nc(OC)n1	-0.15	0.85
110	Cc1cc(C)nc(SCC(CSc2nc(C)cc(C)n2)C(=O)O)n1	1.9	0.2
111	Cc1ccc(NC(=O)C(NS(=O)(=O)c2ccc(Cl)cc2)C(C)C)cc1 (stereo not drawn)	nt	-0.14
112	Clc1cccc(Cl)c1CSc1nc2nccc(-c3ccccn3)n2n1	nt	7.9
113	O=C(NCc1n[nH]c(=O)c2ccccc12)Nc1ccccc1	-1.2	nt
114	O=C(c1cccc(Cl)c1)N1N=C(C(F)(F)F)CC1(O)C(F)(F)F (stereo not drawn)	nt	-0.7
115	Cc1nc2ccc(NC(=O)CSc3nc4ccccc4[nH]3)cc2[nH]1	0.1	nt
116	COC(=O)c1cc(-c2ccc(C)cc2)no1	-0.7	nt
117	C/C(=N/NS(C)(=O)=O)c1ccc2ccccc2c1	0	1

# By substructure: the compounds so far with a tert-butyl group
no.	structure	AID504770	CapD inh
12	CC(C)(C)S(=O)(=O)c1cnc(N2CCOCC2)nc1N	nt	0.19
60	Cc1cc(C(C)(C)C)ccc1NC(=O)COCC(=O)O	-0.95	0.47
64	Cc1ccc2oc(=O)n(CC(=O)C(C)(C)C)c2c1	-2.1*	-0.96
